From PubChem
PrP UTR inh: inhibition of PrP 5' UTR reporter expression; AID 488862; cell-based PrP 5' UTR mRNA reporter, plate reader; inhibition, % (concentration not given with the values); hit rate 0.35% among 340,000;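 active = every replicate at 50% or more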;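 note: 0 = median of the neutral control wells; tested in H4 reporter cells; numbers are from one replicate; inactives centre near -14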
Bead autofluor: counter-screen for toxin protease inhibitors: compound fluorescence; compound autofluorescence counterscreen, microsphere flow cytometry; stronger effect = higher value; fluorescence intensity (test concentration not listed); hit rate 3.1% among 360,000; AID 624483;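 active = at least 3 SD above the mean of all compounds, about 16000 in these data; inconclusive = too few beads counted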;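 note: 100 nL of 1 mM stock went into each well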
Mtb hypoxia inh: Mtb hypoxia fluorescent reporter inhibition; M. tuberculosis hypoxia-regulated fluorescent reporter, fluorescence; fluorescence inhibition, % (test concentration not listed); hit rate 0.1% among 300,000; AID 1159583;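 active = 35 to 45% if threefold the growth effect, above 45% if 1.5-fold the growth effect; inactive = the rest, general growth blockers included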;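 note: wells of about 50 µL received 100 nL stock; 0% = vehicle wells and 100% = reference inhibitor wells; whole bacteria with a GFP reporter of the hypoxia response; strong numbers were not always called active; many hits fall short of the cut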
BJeLR lethal: BJeLR cell viability loss | AID 1554 | inhibition, % (concentration not given with the values) | BJeLR (HRASV12) viability, CellTiter-Glo ATP luminescence, 48 h; reference of the scale not given here | hit rate 0.17% among 300,000;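 active = replicate mean above 50%; inconclusive = above 50% but judged a plate artefact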;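 note: 50 nL library stock added to about 25 µL; numbers are from one replicate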
Sa ugtP lethal: kills S. aureus RN4220 lacking UgtP | growth inhibition, % (no concentration beside the values) | hit rate 0.54% among 330,000 | S. aureus RN4220 ugtP deletion, OD600 growth, 16 h; some inactives read as strong as hits | AID 1259309;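 active = z-score under -3 and OD600 up to 0.15 on both plates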;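 note: plate controls were untreated wells for no effect and antibiotic for full effect; wells of about 80 µL received 100 nL stock; the first replicate is given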
RN4220 kill: S. aureus RN4220 growth inhibition; inhibition, % (no concentration beside the values); OD600, 16 h; hit rate 0.33% among 330,000;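 active = z-score of -3 or lower and OD600 up to 0.18 on both plates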;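 note: plate controls were untreated cells for no effect and reference antibiotic for full effect; stock transfer was 100 nL into about 80 µL; one replicate is shown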
Mtb hypoxia inh growth: second read-out of Mtb hypoxia inh, no call of its own (marks repeat the call); growth inhibition, %; measured here: M. tuberculosis growth (absorbance);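 0% = vehicle and 100% = reference antibiotic; read after six days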
Starred values were filed as active, the others as inactive; u = inconclusive; x = no result given; & = joins results of further samples.

entry	Structure	PrP UTR inh	Bead autofluor	Mtb hypoxia inh	Mtb hypoxia inh growth	BJeLR lethal	Sa ugtP lethal	RN4220 kill
1	COc1ccc(C2C(C#N)=C3NC(=O)c4c(sc5c4CCCCC5)N3C3=C2C(=O)CC(C)(C)C3)cc1 (stereo not drawn)	-16	8144	-7	-6	2	0	4.4
2	CCOc1ccc(S(=O)(=O)N2CN(c3cccc(C(C)=O)c3)c3nc4ccccc4nc32)cc1	-4	2981	6	1	x	-4	4.8
3	C/C(=N/O)c1ccc2c(c1)OCCOCCOc1cc(/C(C)=N/O)ccc1OCCOCCO2	-24	2461	x	x	5	x	x
4	O=C(COC(=O)CCCOc1ccccc1)NC1CCS(=O)(=O)C1 (stereo not drawn)	-15	4190	-6	-7	-4	1	2.2
5	CCOC(=O)C1CCN(C(=O)CCc2nnc3ccc(N4CCN(C)CC4)nn23)CC1	-3	5307	3	16	8	0	1.8
6	CC1CCc2ccccc2N1C(N)=Nc1ccccc1 (stereo not drawn)	-3	4931	6	5	7	6	4.6
7	COc1ccc(-c2cn3nc4c(nc3n2)CCCC4)cc1	28	4694	x	x	x	-4	-0.2
8	COc1cc2ccccc2cc1C(=O)N1CCCC1	-8	u	1	-1	16	-1	0.2
9	O=C(CS(=O)(=O)Cc1ccccc1)Nc1nnc(C(F)(F)F)s1	-4	3056	5	20	-9	32	11
10	COc1ccccc1CNC(=O)CCC(=O)N1CC(C)Sc2ccccc21 (stereo not drawn)	-49	4172	x	x	-14	15	2.7
11	Cc1c(C(=O)NC2CCCCC2)oc2ccccc12	-33	3054	21	14	-3	-8	1.4
12	O=C(O)C1CC(=O)N(Cc2ccccc2)C1 (stereo not drawn)	-11	9347	-1	10	-2	-1	6.0
13	CCN(CC)CCN(C(=O)c1ccc(S(=O)(=O)N2CCCCC2)cc1)c1nc2cc3c(cc2s1)OCO3	-13	1992	10	6	0	13	1.5
14	Cc1nc2ccccc2c(=O)n1NC(=O)/C=C/c1ccccc1Cl	-11	2500	x	x	-6	x	x
15	COC(=O)c1ccc(NC(=O)CSc2nncn2-c2ccccn2)cc1	-3	4394	2	4	1	6	0.3
16	O=C(Nc1nncs1)C1COc2ccccc2O1 (stereo not drawn)	-9	4455	-3	3	6	0	-0.6
17	OCc1cn(-c2ccc(Cl)cc2)nn1	-17	4706	0	1	4	5	6.3
18	C1=C[C@H]2CC[C@@H]1N(c1ccccc1)O2	-22	3482	6	8	x	2	5.7
19	CN(C)S(=O)(=O)c1ccc(-c2csnn2)s1	-13	4099	x	x	-2	2	3.1
20	O=C(O)c1cccc(N2C(=O)c3cccc(Oc4ccc(Cl)cc4)c3C2=O)c1	-11	2639	-12	-6	6	1	8.5
21	O=C(OCCN1CCOCC1)c1cccnc1	-9&-27	7884&8269	17&8	6&9	-5&-4	6&13	7.3&4.8
22	CN(C(=O)c1ccncc1)C1CCS(=O)(=O)C1 (stereo not drawn)	-17	12537	14	8	-5	-2	3.3
23	Cc1nc2c(-c3ccccc3)c(C)nn2c(C)c1CCC(=O)N1CCC2(CC1)OCCO2	-49	u	2	5	-2	0	5.9
24	Cc1ccc(N(CC(O)Cn2c3ccccc3c3ccccc32)S(C)(=O)=O)cc1 (stereo not drawn)	-20	7849	2	10	2	-3	-0.8
25	COc1ccc(C(=O)Oc2ccc3ccc(=O)oc3c2)cc1	2	3736	0	0	3	3	1.9
26	Cc1ccccc1NC(=O)Cc1nnc(SCC(=O)NC2CCCC2)n1C	-7	3159	3	-5	-1	4	3.5
27	O=c1oc(-c2ccccc2)nc2ccsc12	-13	3421	17	10	1	-2	5.0
28	O=C(Nc1ccccc1)OCCCCCOC(=O)Nc1ccccc1	-15	3904	-6	-2	-5	5	4.3
29	Nc1cc(N)nc(SCC(=O)Nc2ccc3c(c2)OCCCO3)n1	-3	3443	6	-3	-2	-2	-2.0
30	CN(C(=O)c1ccc(NC(=O)Cc2cccc(NC(=O)C3CCN(C(=O)C4CCC4)CC3)c2)cc1)C1CC1	-14	3763	-4	2	x	-3	3.7
31	COc1ccc(NC2CCCN(C(=O)CCOc3ccccc3)C2)cc1 (stereo not drawn)	-13	4437	3	-3	-8	11	4.4
32	NC(=O)C1CCCCNc2c(I)cc([N+](=O)[O-])cc2C(=O)NC(CCC(=O)O)C(=O)NC(CO)C(=O)N1 (stereo not drawn)	x	x	8	0	x	1	3.1
33	CCOc1ccc(N2C(=O)C3C4C=CC(CC4)C3C2=O)c([N+](=O)[O-])c1 (stereo not drawn)	-13	8273	-84	-22	0	3	-1.2
34	CCSc1nnc(Cc2cc(=O)[nH]c(=O)[nH]2)n1-c1ccc(F)cc1	-4	4560	-1	6	4	9	2.3
35	CCN1CCCC1CN(Cc1cc2ccc(C)c(C)c2[nH]c1=O)C(=O)Nc1ccccc1OC (stereo not drawn)	-4	6269	-6	11	5	3	11
36	Cc1ccc(C2CC(c3cccc(NS(C)(=O)=O)c3)=NN2S(C)(=O)=O)cc1 (stereo not drawn)	-22	4995	5	-6	-9	8	4.6
37	CCOc1ccccc1NC(=O)C1CCN(c2ccc(S(=O)(=O)N3CCCC3)cc2)CC1	-11	7716	-4	-2	-8	2	3.6
38	O=C(O)c1ccc2oc(SCC(=O)N3CCCCC3)nc2c1	-21	4341	8	9	-7	0	1.4
39	CC(C)(C)c1cc[n+](-c2[nH]c(=O)sc2/C=N/N=C(\[O-])c2ccccc2)cc1	-30	5590	x	x	1	x	x
40	COc1ccc(-n2c(COc3ccc4ccccc4c3)nnc2SCC(=O)NCc2ccco2)cc1	x	10129	-6	1	-1	-5	1.6
41	CCCC(=O)n1nc(-c2ccccc2)nc1N	-37	4101	9	3	-8	-2	6.8
42	COC(=O)c1ccc(C(=O)OC)c(-n2c(=O)c3ccccc3c3ccccc3c2=O)c1	-15	2540	18	20	-3	2	5.3
43	CN(CC(=O)Nc1ccc(F)cc1)CC(=O)N(C)C1(C#N)CCCCC1	-2	3050	-8	-8	x	4	0.2
44	COc1cc(C2CC=C(C(=O)O)C(c3ccc(Cl)cc3)N2S(=O)(=O)c2ccc(C)cc2)cc(OC)c1OC (stereo not drawn)	x	x	11	13	x	9	5.7
45	CSCCC(NC(=O)c1ccc([N+](=O)[O-])cc1Cl)C(=O)OCC(=O)N(C)C (stereo not drawn)	-24	2499	8	5	5	11	7.2
46	COC(=O)c1c(-c2ccc(S(C)(=O)=O)cc2)sc2cc(OC)ccc12	-53	4176	9	4	x	16	7.9
47	CC(C)(C)C(=O)C(Cl)C(=O)Nc1ccccc1 (stereo not drawn)	-9	3821	1	4	-1	30	38
48	CCOC(=O)Cc1csc(NC(=O)CSc2nc(=O)[nH]c3c2CCCC3)n1	-8	x	9	4	14	0	3.3
49	COC(=O)CC=CC(C)C(C=NOC(C)c1cn(C(CO)Cc2ccccc2)nn1)NS(=O)(=O)c1ccc(C)cc1 (stereo not drawn)	x	x	-3	2	x	3	5.0
50	CCOc1cc(C(=S)N2CCOCC2)ccc1OC(=O)c1ccccc1	-12	3790	-5	0	-3	-6	-2.4
51	Cc1c(CC(=O)N2CCN(C(=O)C3COc4ccccc4O3)CC2)c(=O)oc2cc(O)c(Cl)cc12 (stereo not drawn)	-20	5269	x	x	4	x	x
52	COc1ccc(CCCC(=O)NC2CCCCC2)cc1	-7	8495	4	-4	-1	13	3.7
53	COc1cc(/C=C2/SC(=S)N(CC(=O)Nc3cccnc3)C2=O)cc(OC)c1OC	-16	2639	15	7	-15	-2	8.2
54	COc1ccc(NC(=S)N2CCCC(c3nc4ccc(C)cc4[nH]3)C2)cc1 (stereo not drawn)	-31	3311	-3	2	2	0	-0.2
55	O=C(Cc1csc(-c2ccccc2)n1)Nc1ccc(C(F)(F)F)cc1	-15	8171	9	5	-11	-14	1.3
56	S=C(Nc1ccc2c(c1)OCO2)N1CCCC1	-6	4079	0	9	0	2	1.3
57	Cc1nc2sc(-c3ccccc3)cc2c(=O)n1N	x	3324	10	-2	27	7	5.7
58	FC(F)(F)c1cccc(Oc2cc(C(F)(F)F)nc(-c3ccccn3)n2)c1	-22	5584	1	9	-8	14	-2.4
59	N=c1c2c(-c3ccccc3)c(-c3ccccc3)n(Cc3ccco3)c2ncn1Cc1ccco1	-8	3397	x	x	15	-34	-2.4
60	Fc1ccc(-c2nc3c(-c4ccccc4)cnn3cc2CCN2CCOCC2)cc1	-1	3321	6	12	1	3	19

Next entries.
entry	Structure	PrP UTR inh	Bead autofluor	Mtb hypoxia inh	Mtb hypoxia inh growth	BJeLR lethal	Sa ugtP lethal	RN4220 kill
61	CC(=O)OCC(=O)[C@@]1(O)CCC2C3CCC4=CC(=O)CC[C@]4(C)C3C(=O)C[C@@]21C (stereo partly drawn)	x	x	-1	1	x	-3	4.3
62	CCc1nnc(NC(=O)c2ccc(-c3ccc([N+](=O)[O-])cc3Cl)o2)s1	-12	2243	-20	-2	-6	-10	2.3
63	COCCn1c(SCC(=O)NCCc2ccccc2)nnc1-c1ccco1	-17	17231*	-2	-8	1	17	6.6
64	CCn1nnnc1SCC(=O)NNC(=O)C1CCCCC1	6	16037	5	5	1	13	4.0
65	O=C(CN1CCOCC1)NC1C2CC3CC(C2)CC1C3 (stereo not drawn)	-13	2291	x	x	-5	4	2.7
66	Clc1ccccc1C1=NCc2nncn2-c2sc(Br)cc21	x	3987	5	-2	-3	4	1.7
67	Cc1ccc(NC(=O)c2ccc(CSc3ncnc4nc[nH]c34)cc2)c(C)c1	-10	x	x	x	11	4	2.7
68	O=C1c2oc3ccccc3c(=O)c2C(c2cccc(Br)c2)N1Cc1ccco1 (stereo not drawn)	-14	20275*	0	4	-10	-13	7.6
69	CCc1cccc(NC(=O)CCCSc2nc3ccccc3[nH]2)c1	-23	2506	14	9	-1	-6	8.0
70	O=C(Nc1cccs1)Nc1ccccc1Br	-28	2473	2	9	5	2	-2.1
71	COc1ccc(C(=O)Nc2ccc(C(=O)O)cc2NC(=O)c2ccc(OC)cc2)cc1	1	3334	-4	-5	1	9	3.1
72	Nc1nnc(CC(=O)NCc2ccccc2)s1	-14	3315	12	9	2	5	4.8
73	C(=N\Nc1nc(N2CCCC2)nc(N2CCCC2)n1)/c1ccncc1	-16	4699	x	x	-1	x	x
74	CCOP(=O)(OCC)c1nc(-c2ccccc2)oc1NCc1ccccc1	-15	2460	x	x	-6	-6	3.5
75	CCOC(=O)N1CCN(CC(O)COc2ccc3c(c2)CCC3)CC1 (stereo not drawn)	-12	5191	15	11	-13	10	6.8
76	CCCCN1C(=O)c2cccc3cc(O)cc(c23)C1=O	-13	3238	-1	0	5	5	-2.7
77	CN(CC(=O)Nc1cccc(F)c1)C(=O)CC1CCCCC1	-6	u	4	2	-1	3	0.8
78	COc1ccccc1NC(=O)C(=O)N1N=C(C(C)C)CC1(O)C(F)(F)F (stereo not drawn)	-3	5212	8	4	-7	12	11
79	CC(C)=CCN1CCN(Cc2c(C)nn(C)c2Cl)CC1CCO (stereo not drawn)	-28	2289	1	-9	-1	3	2.8
80	Cc1ccc(SC2=C(C(=O)O)CCCC2)cc1	-18	3181	-1	10	1	3	4.8
81	CCOc1ccc2[nH]c(=O)c(CN(Cc3ccccc3)C(=O)N3CCCC3)cc2c1	-24	4531	14	4	0	-6	6.1
82	Cc1ccccc1OCCOC(=O)c1cc(S(=O)(=O)N2CCCCC2)ccc1N1CCOCC1	-10	3515	-2	8	x	0	1.1
83	C=CCC1(O)C(=O)N2C(=C1C(=O)N1CCOCC1)c1ccccc1CC2(C)C (stereo not drawn)	-13	11184	6	10	-2	0	2.7
84	Cc1ccc(-n2c(C)nnc2SCC(=O)NNC(=O)c2ccco2)cc1	-27	4405	12	13	9	10	4.7
85	N#C/C(=C(/O)Cc1ccccc1)P(=O)(c1ccccc1)c1ccccc1	-12	3879	-12	-5	7	-2	5.1

Fetched one by one from above, 2 records:
entry	Structure	PrP UTR inh	Bead autofluor	Mtb hypoxia inh	Mtb hypoxia inh growth	BJeLR lethal	Sa ugtP lethal	RN4220 kill
77	CN(CC(=O)Nc1cccc(F)c1)C(=O)CC1CCCCC1	-6	u	4	2	-1	3	0.8
78	COc1ccccc1NC(=O)C(=O)N1N=C(C(C)C)CC1(O)C(F)(F)F (stereo not drawn)	-3	5212	8	4	-7	12	11
